Compound activity (PubChem)
GCN5L2 inh = inhibitors of human GCN5L2 histone acetyltransferase; 390,000 tested, 0.21% active; Potency, µM (series often up to 58.9 µM), for the others: at the highest dose activity change, negative = inhibition, hits mostly inhibitors; Q92830; GCN5L2 HAT assay, ThioGlo1 CoA-SH fluorescence; active means well fitted inhibition curve with a large enough effect; inconclusive means small, poorly fitted or top-dose-only effect, or another doubt; inactive means no such curve, though single readings can be large or run the other way
Target sequence (Q92830 whole entry, looked up): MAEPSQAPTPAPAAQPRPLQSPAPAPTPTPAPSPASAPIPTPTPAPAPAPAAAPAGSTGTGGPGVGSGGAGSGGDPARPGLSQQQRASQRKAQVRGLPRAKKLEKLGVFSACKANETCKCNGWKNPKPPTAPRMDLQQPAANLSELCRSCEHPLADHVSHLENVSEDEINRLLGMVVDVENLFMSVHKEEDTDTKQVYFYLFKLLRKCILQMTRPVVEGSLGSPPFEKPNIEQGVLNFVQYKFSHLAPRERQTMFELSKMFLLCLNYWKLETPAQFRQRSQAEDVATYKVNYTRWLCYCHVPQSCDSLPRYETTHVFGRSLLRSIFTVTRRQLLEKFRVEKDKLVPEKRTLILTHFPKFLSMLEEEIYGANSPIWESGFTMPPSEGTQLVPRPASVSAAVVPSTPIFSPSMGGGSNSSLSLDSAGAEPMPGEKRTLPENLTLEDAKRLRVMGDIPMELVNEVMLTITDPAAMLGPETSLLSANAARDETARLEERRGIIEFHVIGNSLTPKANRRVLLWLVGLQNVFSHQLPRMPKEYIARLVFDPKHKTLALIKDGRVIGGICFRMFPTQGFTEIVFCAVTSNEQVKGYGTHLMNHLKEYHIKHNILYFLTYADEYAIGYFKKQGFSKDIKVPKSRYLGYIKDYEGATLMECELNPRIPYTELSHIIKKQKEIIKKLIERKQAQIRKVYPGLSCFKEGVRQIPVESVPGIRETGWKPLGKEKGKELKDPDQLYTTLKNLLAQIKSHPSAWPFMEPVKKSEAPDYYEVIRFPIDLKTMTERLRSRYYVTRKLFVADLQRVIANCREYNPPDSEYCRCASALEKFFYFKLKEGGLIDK
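Fluorescence readout, Ex340nm/Em540nm: ThioGlo1 (50uM final) reacts with free CoA thiol released as 20nM GCN5L2 acetylates H3(1-25) peptide (75uM) using acetyl-CoA (70uM). Compound and enzyme sat 15 min beforehand; 20 min room-temperature reaction.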
Starred values were filed as active, the others as inactive; ? = inconclusive; & = joins results of further samples; [ ] = remark or other dose. On the % scale 0 is the no-effect control and ±100 the full control effect; potency means the concentration at half of the fitted maximal effect. An excerpt; most or all hits stand in other tables.

1	O=C(Nc1ccc2c(c1)OCO2)c1cnn2c(C(F)(F)F)cc(-c3ccco3)nc12
  GCN5L2 inh = -1%

2	Cc1cc(C(=O)Nc2cccc([N+](=O)[O-])c2C)cs1
  GCN5L2 inh = -2%

3	CCOC(=O)CSc1nnc(Cc2ccccc2)n1-c1ccc(C)cc1
  GCN5L2 inh = -4%

4	O=C(O)c1cc(NC(=O)c2ccccc2F)cc(NC(=O)c2ccccc2F)c1
  GCN5L2 inh = -13%

5	CC1CCN(C(=O)c2[nH]cnc2C(=O)N[C@@H](C)C(=O)OCc2ccccc2)CC1
  GCN5L2 inh = 2%

6	COC(=O)c1cc(OC)c(OC)cc1NC(=O)CN1CCOCC1
  GCN5L2 inh = -2%

7	Clc1ccc(-c2nnc3ccccn23)cc1
  GCN5L2 inh = 3%

8	COc1ccc(Cn2cc(F)c(=O)n(CCC(C)C)c2=O)cc1[N+](=O)[O-]
  GCN5L2 inh = -2%

9	COc1cc(NC(=O)c2cc([N+](=O)[O-])ccc2NC(=O)CN2CCN(c3ccccn3)CC2)cc(OC)c1
  GCN5L2 inh = -1%

10	CC(=O)c1cccc(NC(=O)C2CCN(C(=O)c3ccccc3Cl)CC2)c1
  GCN5L2 inh = -29%

11	COc1ccc(-c2cc(C(=O)NCCCN3CCCC3=O)c3ccccc3n2)cc1
  GCN5L2 inh = -13%

12	O=C(NC(=S)Nc1ccccn1)c1cncc(Br)c1
  GCN5L2 inh = 1%

13	C(=N\Nc1nc2ccccc2s1)/c1ccccn1
  GCN5L2 inh = ?

14	COc1ccc(S(=O)(=O)N2CCOCC2)cc1NC(=O)Cc1c(F)cccc1Cl
  GCN5L2 inh = 1%

15	COc1cccc(-c2cc(C(F)(F)F)nc(-n3cccn3)n2)c1
  GCN5L2 inh = ?

16	COc1ccc(CN2CCN(C(=O)CC(C)C)CC2)c(OC)c1OC
  GCN5L2 inh = 0%

17	Cc1nc2ccc(NC(=O)N3CCC(c4ccccc4)C3)cc2nc1C (configuration not stated)
  GCN5L2 inh = -7%

18	CCc1ccc(OCC(=O)N2CCc3ccccc32)cc1
  GCN5L2 inh = -1%

19	Cc1nn2c(-c3ccc(Cl)cc3)nnc2s1
  GCN5L2 inh = -1%

20	COc1ccccc1N(C)S(=O)(=O)c1ccc(Cl)c(C(=O)NCc2ccco2)c1
  GCN5L2 inh = -12%

21	O=C(NCc1ccc2c(c1)OCO2)c1cc(-n2cnnc2)ccc1Cl
  GCN5L2 inh = -25%

22	COC(=O)C(C(C)C)N1CCc2c(C)nc3c(C#N)cnn3c21 (configuration not stated)
  GCN5L2 inh = -11%

23	CCOC(=O)c1ccc(NC(=O)COc2ccccc2CNC2CCCC2)cc1
  GCN5L2 inh = -10%

24	COc1cc2c(cc1OC)C(COc1ccc3c(C)cc(=O)oc3c1)N(C(=O)Cc1ccc(F)cc1)CC2 (configuration not stated)
  GCN5L2 inh = -4%

25	O=C(CN1CCN(S(=O)(=O)c2ccccc2)CC1)N1CCCCC1
  GCN5L2 inh = 1%

Shown with the structure last: 2 of the compounds above
| # | GCN5L2 inh | canonical_smiles |
| --- | --- | --- |
| 6 | -2% | COC(=O)c1cc(OC)c(OC)cc1NC(=O)CN1CCOCC1 |
| 7 | 3% | Clc1ccc(-c2nnc3ccccn23)cc1 |

Four compounds out of the list, ordered by number of heavy atoms, rising:
16	COc1ccc(CN2CCN(C(=O)CC(C)C)CC2)c(OC)c1OC
  GCN5L2 inh = 0%

14	COc1ccc(S(=O)(=O)N2CCOCC2)cc1NC(=O)Cc1c(F)cccc1Cl
  GCN5L2 inh = 1%

1	O=C(Nc1ccc2c(c1)OCO2)c1cnn2c(C(F)(F)F)cc(-c3ccco3)nc12
  GCN5L2 inh = -1%

9	COc1cc(NC(=O)c2cc([N+](=O)[O-])ccc2NC(=O)CN2CCN(c3ccccn3)CC2)cc(OC)c1
  GCN5L2 inh = -1%

Following part.
26	COc1ccccc1CNCC(O)(c1ccc(Cl)cc1)c1ccc(Cl)cc1
  GCN5L2 inh = -3%

27	COC(=O)COn1c(SCC(=O)OC)nc2ccccc2c1=O
  GCN5L2 inh = 1%

28	O=C(O)/C(=C\c1ccc(Br)cc1)c1ccc(S(=O)(=O)N2CCCCC2)s1
  GCN5L2 inh = 32%[activator]

29	COc1ccc(C(=O)NC(Oc2ccccc2)C(Cl)(Cl)Cl)cc1 (configuration not stated)
  GCN5L2 inh = 0%

30	COc1ccc(CN2C(=O)c3ccccc3C2OC)cc1 (configuration not stated)
  GCN5L2 inh = -2%

31	COc1ccc(/C=N/Nc2nc3ccccc3o2)cc1O
  GCN5L2 inh = 0%

32	COc1ccc(-c2cc(-c3ccc(C)cc3)nc3c2COc2ccccc2-3)cc1
  GCN5L2 inh = 1%

33	N#Cc1c(NCCN)nc(NCc2ccccc2)c2c1CCN(Cc1ccccc1)C2
  GCN5L2 inh = -14%

34	O=S(=O)(NCC(c1ccco1)N1CCN(c2ccccc2)CC1)c1ccc(F)cc1 (configuration not stated)
  GCN5L2 inh = -3%

35	O=[N+]([O-])c1ccc2nc(-c3ccccc3)oc2c1
  GCN5L2 inh = -19%

36	O=c1[nH]cnc2sc3c(c12)CCCC3
  GCN5L2 inh = 2%

37	CC(C)c1ccc(OC(=O)c2cc(-c3ccc4c(c3)OCCO4)on2)cc1
  GCN5L2 inh = -20%

38	Cn1c(SCC(=O)N2CCCCCC2)nc2c(c1=O)SCC2
  GCN5L2 inh = -19%

39	C[C@H]1CN=C(N(C)C)N1CCc1ccc(F)cc1
  GCN5L2 inh = -14%

40	COCCCNc1nc2c(-c3cccc(C)c3)nnn2c2ccccc12
  GCN5L2 inh = -2%

41	CCN(c1ccccc1)S(=O)(=O)c1nnc(NC(=O)c2ccccc2OC)s1
  GCN5L2 inh = -13%&-3%

42	CCN(C(=O)CCN1C(=O)c2ccccc2S1(=O)=O)c1ccccc1
  GCN5L2 inh = 1%

43	COc1ccccc1NS(=O)(=O)c1cc(Cl)ccc1OC
  GCN5L2 inh = -6%

44	CCC(=O)N1CCc2cc(S(=O)(=O)Nc3cc(C)ccc3OC)ccc21
  GCN5L2 inh = -11%

45	COc1ccc(CN2CCc3ccc(NC(=O)c4ccncc4)cc3C2)c(F)c1
  GCN5L2 inh = -1%

46	CN(C)c1cc(=O)n2c(n1)SCCC2
  GCN5L2 inh = -4%

47	O=C(Nc1ccc(N2CCOCC2)cc1)C1CC1
  GCN5L2 inh = -1%

48	CC1CCCC(C)N1C(=O)CN1CCN(c2nc(-c3ccc(F)cc3)cs2)CC1 (configuration not stated)
  GCN5L2 inh = -22%

49	Cc1ccc2sc(NC(=O)CN3C(=O)CCC3=O)nc2c1C
  GCN5L2 inh = -15%

50	Cc1nn(C)c(Cl)c1NC(=O)OCc1ccccc1
  GCN5L2 inh = 1%

(more compounds)
| cpd | structure | GCN5L2 inh |
| --- | --- | --- |
| 51 | COc1cc(C(=O)NNC(=O)C2CC=CCC2C(=O)O)cc(OC)c1OC (configuration not stated) | 1% |
| 52 | Cc1ccc(C)c(CN2C(=O)c3ccccc3S(=O)c3ccc(C(=O)NCc4ccccc4Cl)cc32)c1 (configuration not stated) | -8% |
| 53 | CC1(C)Oc2ccc(C(=O)NN)cc2NC1=O | -4% |
| 54 | CCOC(=O)CSc1nnc([C@H](CC(C)C)NC(=O)OC(C)(C)C)o1 | -2% |
| 55 | CC(=O)Nc1ccc(S(=O)(=O)Oc2ccc(C=O)cc2)cc1 | -6% |
| 56 | Clc1ccc(-c2nnc3n2CCCC3)cc1 | ? |
| 57 | O=C(CCc1c[nH]c2ccccc12)NCc1ccc2c(c1)OCO2 | -6% |
| 58 | CCOC(=O)C(NC(=O)CC)(N1CCc2ccccc2C1)C(F)(F)F (configuration not stated) | -5% |
| 59 | Cc1ccc(/C=C2\SC(=S)N(CCC(=O)NCCCN3CCOCC3)C2=O)cc1 | -5% |
| 60 | COc1ccccc1NC(=O)NNC(=O)CCN1CCOCC1 | -1% |
| 61 | Cc1nc(C(=O)N2CCCC(Nc3ccc(C)c(C)c3)C2)cs1 (configuration not stated) | -32% |
| 62 | O=C(NNC(=O)c1ccccc1O)c1ccc(NS(=O)(=O)c2ccc(F)cc2)cc1 | -12% |

Some of the entries so far, with the structure last:
nr	GCN5L2 inh	Molecule
11	-13%	COc1ccc(-c2cc(C(=O)NCCCN3CCCC3=O)c3ccccc3n2)cc1
12	1%	O=C(NC(=S)Nc1ccccn1)c1cncc(Br)c1
13	?	C(=N\Nc1nc2ccccc2s1)/c1ccccn1
14	1%	COc1ccc(S(=O)(=O)N2CCOCC2)cc1NC(=O)Cc1c(F)cccc1Cl
15	?	COc1cccc(-c2cc(C(F)(F)F)nc(-n3cccn3)n2)c1

Following part.
| cpd | structure | GCN5L2 inh |
| --- | --- | --- |
| 63 | O=C(COc1cccc(-n2cnnn2)c1)Nc1ccccc1 | 5% |
| 64 | CCN(CC)C(=O)c1nc[nH]c1C(=O)N1CCC(C)CC1 | -3% |
| 65 | Clc1ccc(CN2CCN(/N=C/c3cccnc3)CC2)cc1 | -8% |
| 66 | O=C(Nc1ccncc1)Nc1ccc(F)cc1F | -9% |
| 67 | O=C(Nn1c(=S)[nH]c2ccccc2c1=O)c1ccncc1 | -7% |
| 68 | Cc1cc(NCCNC2=CC(=O)CCC2)nc2ccccc12 | 2% |
| 69 | CCCn1c(N)c(N(CCOC)C(=O)CSc2cc(C)c3cccc(C)c3n2)c(=O)[nH]c1=O | 0% |
| 70 | CSc1cccc(NS(=O)(=O)c2cccs2)c1 | -1% |
| 71 | Cc1ccc(NC(=O)c2ccc(-n3cccn3)nc2)cc1 | 4% |
| 72 | Cc1ccc(CNC(=O)CNS(=O)(=O)c2ccc3nc(C)sc3c2)cc1 | -8% |
| 73 | CN(C)S(=O)(=O)c1cc(C(=O)Nc2ccccc2C(=O)NC2CC2)ccc1Cl | ? |
| 74 | O=C(Nc1ccc(Oc2cccnc2)cc1)C1CCN(Cc2ccc(F)cc2)CC1 | 1% |
| 75 | Cc1cc2cc(C#N)c(NCCNC(=S)NCCCN3CCOCC3)nc2cc1C | 15% |
| 76 | O=C(NCc1ccccc1)C1CCC(=O)N(CCCN2CCCC2=O)C1 (configuration not stated) | 1% |
| 77 | COCc1nnc(NC(=O)CC(C)c2ccccc2)s1 (configuration not stated) | -11% |
| 78 | CC(C)c1ccc(C2NC(=O)c3n[nH]c(-c4cccs4)c32)cc1 (configuration not stated) | -1% |
| 79 | COc1ccc(OC)c(-n2c(-c3cc(-c4ccccc4)n[nH]3)n[nH]c2=S)c1 | -3% |
| 80 | CNC(=O)C1CC(=O)N(Cc2ccc3c(c2)OCO3)C(=Nc2ccc(F)cc2)S1 (configuration not stated) | -4% |
| 81 | CCO[C@H]1OC(C(=O)N2CCOCC2)=C[C@@H](c2coc3ccccc3c2=O)[C@@H]1CCCO | -6% |
| 82 | CCN(CC(=O)NCc1cccs1)C(=O)c1ccc(S(=O)(=O)N(C)C)cc1 | -7% |
| 83 | Cc1cccc(C)c1N1CCN(C(=O)Cn2cncn2)CC1 | 1% |
| 84 | C=CCSc1ncc(-c2ccccc2)cn1 | -5% |
| 85 | CCCCCn1c(=O)[nH]c2cc(C(=O)NCc3ccc(OC)cc3)ccc2c1=O | 2% |
| 86 | CCN(CC)C(=N)/C(C#N)=N/Nc1ccccc1 | -15% |
| 87 | O=C(CN1C(=O)CSc2ccccc21)NC1CCCC1 | -10% |
| 88 | N/C(=N\OC(=O)Cc1ccccc1)c1ccncc1 | 36%[activator] |
| 89 | CCc1nnc(SCc2nc(-c3ccccc3)oc2C)c2cc3sccc3n12 | -1% |
| 90 | COc1ccc(-c2ccc(NCCC3=CCCCC3)nn2)cc1OC | -1% |
| 91 | O=C(Cc1ccc(NC(=O)N2CCCCc3ccccc32)cc1)NCc1cccc(Br)c1 | 5% |
| 92 | COc1ccc(Cl)cc1NC(=O)CSc1nc2c([nH]c3ccccc32)c(=O)n1-c1ccccc1 | 3% |
| 93 | Cc1ncc(CO)c(CO)c1O | -4% |
| 94 | O=C(CN1CCN(S(=O)(=O)c2ccc(Cl)c(Cl)c2)CC1)N1CCCC1 | 1% |
| 95 | Cn1cnc(S(=O)(=O)NCc2ccccc2)c1 | 5% |
| 96 | CC(C)[C@H](NC(=O)OC(C)(C)C)c1nnc(SCC(=O)Nc2ccc(Br)cc2)o1 | -25% |
| 97 | CC(=O)N1c2ccccc2C(C)(C)C2CCC(C)CC21 (configuration not stated) | -3% |
| 98 | CCC1=Nc2cc(C(=O)NCc3cccnc3)ccc2Sc2ccc(C)cc21 | 1% |

Copied from above, nos. 90 to 91
| cpd | structure | GCN5L2 inh |
| --- | --- | --- |
| 90 | COc1ccc(-c2ccc(NCCC3=CCCCC3)nn2)cc1OC | -1% |
| 91 | O=C(Cc1ccc(NC(=O)N2CCCCc3ccccc32)cc1)NCc1cccc(Br)c1 | 5% |

The list goes on:
| cpd | structure | GCN5L2 inh |
| --- | --- | --- |
| 99 | CN(CC(=O)Nc1ccc(F)cc1)C(=O)C1CC(=O)N(Cc2ccccc2)C1 (configuration not stated) | 1% |
| 100 | Cc1nn(CCCC(=O)Nc2cnn(Cc3ccc(F)cc3)c2)c(C)c1[N+](=O)[O-] | -4% |
| 101 | CCC(=O)N1CCc2cc(CNS(=O)(=O)c3ccc(CC(C)C)cc3)ccc21 | -10% |
| 102 | CCOC(=O)c1[nH]c(C)c(C(=O)NC2CCCCC2)c1C | 1% |
| 103 | CC(C)(C)c1ccc(C(=O)OCc2c(-c3ccccc3)ncc3ccccc23)cc1 | -7% |
| 104 | CCOC(=O)C(CC)n1cnc2c(oc3ccccc32)c1=O (configuration not stated) | -11% |
| 105 | COc1ccc(OC)c(NC(=S)N2CCN(Cc3ccccc3)CC2)c1 | -26% |
